# High-throughput results (PubChem BioAssay)
# TRPML1 blocker: blocks the human TRPML1 channel. Q9GZU1. TRPML1-inducible cells, Ca2+ dye fluorescence, FDSS; active compounds read low; inhibition of EC80 agonist-evoked calcium signal. activity change, negative = inhibition, % (test concentration not listed). hit rate 0.02% among 390,000. AID 624415; in the data active means activity change below about -50%; inconclusive means about -30% to -50%; inactive means above about -30%;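 further: stimulus is agonist 54-4 at its EC80 concentration; on the % scale 0 is the no-effect control and ±100 the full control effect; compound concentration not given in the record; the text of the record puts the active cut at -80%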
# Target sequence (Q9GZU1 whole entry, looked up): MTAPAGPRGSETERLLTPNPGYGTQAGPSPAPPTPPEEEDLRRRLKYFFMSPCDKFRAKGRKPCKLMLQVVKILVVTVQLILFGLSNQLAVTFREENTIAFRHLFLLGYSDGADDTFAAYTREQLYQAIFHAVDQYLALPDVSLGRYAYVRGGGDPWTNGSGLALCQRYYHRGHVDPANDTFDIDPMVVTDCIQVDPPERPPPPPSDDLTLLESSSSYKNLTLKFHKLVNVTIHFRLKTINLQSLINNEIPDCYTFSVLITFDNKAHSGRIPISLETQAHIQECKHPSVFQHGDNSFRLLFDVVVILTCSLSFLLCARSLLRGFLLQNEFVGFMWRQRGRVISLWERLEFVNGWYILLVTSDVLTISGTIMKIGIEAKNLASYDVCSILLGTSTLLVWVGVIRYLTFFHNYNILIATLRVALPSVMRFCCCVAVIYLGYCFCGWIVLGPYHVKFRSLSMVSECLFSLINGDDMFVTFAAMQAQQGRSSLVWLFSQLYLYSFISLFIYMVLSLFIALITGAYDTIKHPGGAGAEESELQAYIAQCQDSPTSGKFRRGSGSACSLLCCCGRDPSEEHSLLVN
#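 Tet-induced TRPML1-DL cells loaded with Ca8 no-wash calcium dye were read kinetically on FDSS. Compound addition was followed by EC80 agonist 54-4 (4 uM final); inhibition was read over 110 s.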
# D2 PAM: potentiates the human D2 dopamine receptor allosterically. P14416. DiscoveRx D2 beta-arrestin cells, luminescence, 90 min; 100% = 57 uM dopamine signal. potentiation, % (concentration not given with the values). hit rate 0.23% among 360,000. AID 624464; active = potentiation of 50% or more; inconclusive = 30% to 50%; inactive = 30% or less;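 further: compound concentration not given in the record; tested on top of an EC20 dose of dopamine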
# Target sequence (P14416 whole entry, looked up): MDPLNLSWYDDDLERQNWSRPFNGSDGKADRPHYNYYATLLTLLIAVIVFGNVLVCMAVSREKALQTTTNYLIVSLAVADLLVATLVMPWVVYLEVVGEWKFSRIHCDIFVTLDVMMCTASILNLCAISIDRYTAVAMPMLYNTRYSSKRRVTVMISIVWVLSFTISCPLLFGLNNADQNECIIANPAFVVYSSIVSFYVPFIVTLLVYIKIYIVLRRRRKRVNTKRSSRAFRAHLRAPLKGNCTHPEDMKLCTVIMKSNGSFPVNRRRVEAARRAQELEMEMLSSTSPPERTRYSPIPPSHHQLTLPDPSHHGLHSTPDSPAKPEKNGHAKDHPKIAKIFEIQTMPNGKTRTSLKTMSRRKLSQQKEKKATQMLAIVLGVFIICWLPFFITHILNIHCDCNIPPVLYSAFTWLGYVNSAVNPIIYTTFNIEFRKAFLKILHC
#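 PathHunter beta-arrestin assay in DiscoveRx D2 cells. Compounds were added with an EC20 of dopamine (50 nM final) for 90 min at 37 deg C. Luminescence was read 1 h after detection reagent, with 57 uM dopamine as the EC100 control.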
# D2 ag: human D2 receptor agonism in beta-arrestin assay; hit rate 0.084% among 360,000; DiscoveRx PathHunter D2 beta-arrestin, luminescence, 90 min; 100% = 57 uM dopamine signal; P14416; activation, % (test concentration not listed); in the data active = activation above about 40%; inconclusive = about 15% to 40%; inactive = below about 15%; further: compound concentration not given in the record; the text of the record calls up to 30% inactive
#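 Agonist mode: compounds alone added to overnight-plated D2 PathHunter cells for 90 min at 37 C, with 57 uM final dopamine (EC100) defining full response. Beta-arrestin recruitment detected by chemiluminescent reagent, read after 1 h at ambient temperature.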
# PINK1 expr mod: changes PINK1 expression; AID 624263; hit rate 0.2% among 410,000; PINK1 immunofluorescence, high-content cytometry, 24 h; Potency, µM (top dose mostly 76.6 µM), for inactives: at the top dose activation (PINK1 increase), usual class: activators; active = well fitted activation curve with a large enough effect; inconclusive = small, poorly fitted or top-dose-only effect; inactive = flat fitted curve, though single readings scatter; cell line not stated here;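 further: potency means the concentration at half of the fitted maximal effect; % of control where 0% means no effect; nearly all actives have a fitted effect of over 65% in size; a mitochondrial uncoupler was the plate control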
#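 Cells are seeded, rested 12 hours, then given compound at five concentrations or DMSO for 24 hours. After fixation, blocking and antibody staining, PINK1 amount and mitochondrial localization are scored; CCCP serves as control.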
# Six1-Eya2 blk: blocks human Six1 binding to Eya2; Q15475+O00167; AlphaScreen GST-Six1/His-Eya2 binding, biochemical; active compounds read low; control for the full effect not named in the record; activity change, % (concentration not given with the values); hit rate 0.56% among 360,000; AID 651725; in the data active = activity change below about -65%; inconclusive = about -30% to -65%; inactive = above about -30%; further: on the % scale 0 is the no-effect control and ±100 the full control effect
#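 GST-Six1 + His-Eya2 (5X stock: 250/500 nM); Tris pH 8.0, 300 mM NaCl, 0.05% BSA, 0.02% Tween 20; GSH donor/Ni acceptor beads; 1 h 37 °C dark; AlphaScreen readout.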
# TRPML1 agonist: agonists of human TRPML1 channel | TRPML1-expressing cells, Ca2+ dye fluorescence, FDSS; host cell line not named in the record; reference of the full effect not given here | activation, % (no concentration beside the values) | hit rate 0.12% among 410,000; in the data active = activation above about 50%; inconclusive = about 30% to 50%; inactive = below about 30%; further: 0% is about no effect; the text of the record puts the active cut at 80%
#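 In this qHTS format, compounds were pin-transferred onto Ca8-dye-loaded TRPML1-DL cells induced with Tet overnight, and intracellular Ca2+ fluorescence was recorded kinetically for 110 s after a 10 s baseline. A subsequent 4uM final 54-4 (EC80) addition followed by a second 110 s read served as the antagonist phase.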
# * hit, by the source's call; ? = inconclusive; . = not tested or not shown; [ ] = dose if it differs, or a comment.
SMILES,TRPML1 blocker,D2 PAM,D2 ag,PINK1 expr mod,Six1-Eya2 blk,TRPML1 agonist
COC(=O)c1nc(NNC(=O)c2ccccc2)sc1-c1ccccc1,-14,-1,0.6,2.1%,6,0.3
Cc1[nH]c2ccccc2c1CCN(Cc1cccnc1)C(=S)NC(C)(C)C,-11,-7,5.3,1.3%,-11,0.1
COCCNc1nc(NCc2ccccc2OC)c2sccc2n1,.,-17,-1.6,0.7%,5,-0.7
COC(=O)c1ccc(C2c3c(oc4ccc(F)cc4c3=O)C(=O)N2CCO)cc1 (stereo unspecified),-14,-11,-2.5,-1.8%,-5,0.1
Cc1nn(C(C)C(=O)N2CCOCC2)c(C)c1[N+](=O)[O-] (stereo unspecified),-9,0,-0.4,2.8%,14,-0.3
O=C(c1ccc2nccnc2c1)N1CCN(c2ccccc2)CC1,-18,5,0.8,0.7%,4,-0.4
CCOC(=O)c1ccc(N(CC(=O)NCC2CCCO2)C(=O)CCC(=O)Nc2cc(C)on2)cc1 (stereo unspecified),-19,-9,-1.2,5.8%,7,-1.2
CCOC(CNC(=O)CN1C(=O)COc2ccc(S(=O)(=O)N3CCOCC3)cc21)OCC,3,-6,-0.5,-0.6%,3,0.0
Cc1ccccc1CN1CCN(C(=O)CC(C)C)CC1,2,1,-0.6,-0.5%,0,-1.0
CCOC(=O)C1CCN(C(c2ccc(OC)c(OC)c2)c2sc3nc(C)nn3c2O)CC1 (stereo unspecified),-9,2,-2.5,0.8%,21,0.7
C[C@@H](C(=O)OCC(=O)NCCc1ccc(S(N)(=O)=O)cc1)N1C(=O)C2CCCCC2C1=O (stereo partly specified),-5,-4,-1.2,0.5%,0,-0.3
CN1CCN(CCCNC(=O)c2ccc(/C=C3\Sc4ccccc4N(Cc4ccc(F)cc4)C3=O)cc2)CC1,0,-18,-0.2,-1.8%,-11,-0.1
CCOc1ccc(Nc2c(S(=O)(=O)c3ccc(Cl)cc3)cnc3ccc(OC)cc23)cc1,-8,.,.,3.1%,.,0.4
CC1CCCCC12NC(=O)N(CC(=O)Nc1ccc(Cl)c(S(=O)(=O)N3CCOCC3)c1)C2=O (stereo unspecified),3,-12,1.2,-0.3%,5,0.0
Brc1ccc(C2=NC(Cc3ccccc3)CO2)cc1 (stereo unspecified),37,-6,-2.5,5.2%,1,-0.7
O=C(O)CCc1ccccc1OC(=O)c1ccccc1,-21,2,-0.9,1.5%,3,1.9
CCOC(=O)c1cccc(NC(=O)N[C@@H](C)C(=O)OC)c1,0,-3,-3.1,-1.1%,19,0.5
CCN(CC)CCNC(=O)c1ccc(NC(=O)c2cccc(-n3cnnn3)c2)cc1,56,-2,-4.4,0.6%,8,0.6
COc1ccc(NC(=O)C2C3C=CC4(O3)C2C(=O)N(CCCN2CCCCC2)C4C(=O)NC2CCCC(C)C2C)cc1 (stereo unspecified),-6,-6,-0.8,-0.1%,-3,0.8
O=C1Nc2ccccc2C12OCCO2,28,1,0.3,?,-1,0.7
Cc1cn([C@H]2C[C@H](O)[C@@H](CNCc3ccc(-c4cc(Cl)ccc4C(F)(F)F)o3)O2)c(=O)[nH]c1=O,2,-11,-8.5,0.9%,-9,-0.6
COc1cccc(CN2CC(C(=O)NCCOc3ccccc3)CCC2=O)c1 (stereo unspecified),-7,-2,2.4,-0.8%,1,0.0
Cn1c(=O)c(=O)n(C)c2cc(S(=O)(=O)CCC(=O)Nc3c(F)c(F)c(F)c(F)c3F)ccc21,6,-14,-6.5,0.0%,-5,-0.6
COc1ccc(OC)c(S(=O)(=O)Nc2c(C)cccc2C)c1,-13,0,2.5,1.2%,1,-0.9
O=c1c2cc(NC(=S)N3CCC(N4CCCCC4)CC3)ccc2nc2n1CCCCC2,1,-9,-4.9,-0.3%,0,0.6

# Taken from the results shown for reference:
SMILES,TRPML1 blocker,D2 PAM,D2 ag,PINK1 expr mod,Six1-Eya2 blk,TRPML1 agonist
CCOC(=O)C1CCN(C(c2ccc(OC)c(OC)c2)c2sc3nc(C)nn3c2O)CC1 (stereo unspecified),-9,2,-2.5,0.8%,21,0.7
C[C@@H](C(=O)OCC(=O)NCCc1ccc(S(N)(=O)=O)cc1)N1C(=O)C2CCCCC2C1=O (stereo partly specified),-5,-4,-1.2,0.5%,0,-0.3

# Continuation:
SMILES,TRPML1 blocker,D2 PAM,D2 ag,PINK1 expr mod,Six1-Eya2 blk,TRPML1 agonist
Cc1ccc(Cn2c(=N)c(S(=O)(=O)c3ccc(C)cc3)cc3c(=O)n4ccccc4nc32)cc1,-13,-9,-25,12%,1,0.0
c1ccc(-n2cnnc2SCc2nc3ccccc3s2)cc1,-1,-5,-2.6,0.7%,2,0.3
OCCC1CN(Cc2cn[nH]c2C2CCCCC2)CCN1Cc1ccccc1 (stereo unspecified),-8,-22,-3.5,0.1%,4,-0.4
CC1=C(C(N)=O)C(c2ccco2)C(C(N)=O)=C(C)N1,8,-8,0.6,-0.3%,4,0.2
CC1CC(C)CN(S(=O)(=O)c2ccc(C(=O)Nc3nnc(-c4cccs4)o3)cc2)C1 (stereo unspecified),13,21,-0.6,1.2%,-8,15
Cc1ccc(-n2cc(-c3ccccc3)c3c(=O)[nH]cnc32)cc1,8,-30,-0.4,0.4%,13,2.9
OC1(C(F)(F)F)CC(c2ccc3ccccc3c2)=NO1 (stereo unspecified),21,-5,-0.9,0.8%,0,-0.1
CC(=O)c1ccc(NC(=O)CSc2nccn2Cc2ccc3c(c2)OCO3)cc1,-2,.,.,-1.9%,.,2.2
CC1=CC2=NC(=O)/C(=C\c3ccc(OC(=O)c4ccco4)cc3)C(=N)N2O1,-1,2,14,2.0%,-1,-0.3
O=C(CN1CCN(S(=O)(=O)c2ccc(Cl)cc2)CC1)NCc1cccs1,7,6,-1.5,1.4%,8,-0.7
CC1CN(C(=O)CSc2nnc(-c3cccs3)n2N)CC(C)O1 (stereo unspecified),-3,-4,-4.1,-0.4%,0,-0.5
COC(=O)c1c(NC(=O)Cc2ccc(OC)c(S(=O)(=O)N3CCOCC3)c2)sc(C)c1C,2,19,0.8,0.7%,?,1.8
COc1ccccc1OCc1ccc(C(=O)Nc2ccccc2)cc1,21,3,0.3,5.3%,3,-0.5
Cc1nc(N2CCN(S(=O)(=O)c3ccccc3C#N)CC2)c2c(-c3cccs3)csc2n1,50,15,2.4,1.9%,-3,0.6
COC(=O)/C=C/c1c(C)[nH]c(=O)[nH]c1=O,-15,4,1.4,-0.2%,4,-1.1
O=C1c2ccccc2C(=O)N1CCc1nc2ccccc2c(=O)n1CCCn1ccnc1,9,3,0.2,-0.7%,1,0.8
CC(=NNC(=O)c1cc(C)nc2ccccc12)c1ccc(N2CCOCC2)cc1,1,-5,-2.9,2.6%,3,0.3
Cc1cnc(C(=O)N2CCN(S(=O)(=O)c3ccc4ccccc4c3)CC2)cn1,-1,-1,0.5,6.3%[38.3 µM],0,-0.7
COc1ccc(C(C(=O)NC(C)(C)C)N(C(=O)CCC(=O)Nc2ccccn2)C2CCCCC2)cc1 (stereo unspecified),-7,-15,-0.9,0.8%,12,-0.1
O=C(COC(=O)CCC1CCCC1)Nc1ccc(F)cc1,19,-5,-7.2,3.5%,11,-0.8
CC(C)[C@H](NC(=O)OCc1ccccc1)C(=O)NCc1ccccc1,-2,-1,-4.8,-0.8%,8,2.0
CC(=O)C(C(C)=O)c1cc(NS(=O)(=O)c2ccccc2)ccc1NS(=O)(=O)c1ccccc1,3,-5,-0.2,-2.0%,6,5.0
COc1ccc(CNC(=O)c2c(Nc3ccc(OC)cc3OC)sc(C(=O)c3ccc(Cl)cc3)c2N)cc1,9,.,.,1.2%,.,2.8
CN(C)c1ccc(CNC(=O)CN2C(=O)COc3ccc(S(=O)(=O)N4CCCC4)cc32)cc1,?,0,5.8,0.0%,-7,0.7
COc1ccc(CCNC(=O)COc2cc(O)c3c(c2)OC(C)(C)CC3=O)cc1OC,.,4,-2.1,-0.1%,-1,.
SMILES,TRPML1 blocker,D2 PAM,D2 ag,PINK1 expr mod,Six1-Eya2 blk,TRPML1 agonist
COc1ccc(C(NC(=O)C2CCN(Cc3ccc(Oc4ccccc4)cc3)CC2)c2ccccn2)cc1 (stereo unspecified),1,-20,-7.0,22%,-22,0.6
CCc1nc2ccc(C(=O)NCCC(C)C)cn2c1N(CC)CCOC,-8,-7,-3.6,0.2%,-3,-0.2
O=C(Cn1c(=O)n(-c2ccc(F)c(Cl)c2)c(=O)c2sc3ccccc3c21)NC1CCCC1,-2,.,.,2.1%,.,-0.6
COc1ccc(N2CCN(CCCNC(=O)C(=O)c3c[nH]c4ccccc34)CC2)cc1,-19,-24,0.2,0.3%,?,-0.2
COc1cc(Br)c(Br)cc1N,14,-10,-0.6,0.0%,8,3.2
COc1ccc(/C(O)=C2/C(=O)C(=O)N(Cc3cccnc3)C2c2ccco2)cc1OC (stereo unspecified),14,-8,-2.0,-0.3%,5,-0.4
COc1ccccc1CC(=O)Nc1ccc(-c2noc(COc3ccc(Br)cc3)n2)cc1,-8,-7,-0.9,21%,-1,0.5
CC1(C)CC2CC(C)(CN2S(=O)(=O)c2ccc(C(=O)Nc3ccc(Cl)c(S(=O)(=O)N4CCOCC4)c3)cc2)C1 (stereo unspecified),-10,-1,2.9,0.2%,-13,-0.3
C=CCNc1cc(C(F)(F)F)nc(-c2ccccn2)n1,5,-4,-1.0,-0.1%,-3,0.1
CCOc1ccccc1NC(=O)c1ccc(-n2cncn2)nc1,-7,-13,-0.5,-2.1%,13,-0.1
Cc1ccc(C(=C2C3C=CC2C2C(=O)NC(=O)C32)c2ccc(C)cc2)cc1 (stereo unspecified),7,0,-5.7,?,-8,0.0
CCOC(=O)CSc1nc(Cc2ccccc2)nc2ccccc12,55,-5,-3.7,0.0%,16,3.6
CCCC(=O)NCCc1ccc(F)cc1,-1,-4,-3.0,-1.6%,17,0.8
Cc1noc(C)c1C(=O)OCC(=O)/C=C1/N(C)c2ccccc2C1(C)C,20,-2,5.3,7.7%,2,-0.6
O=C(NC1CCCc2ccccc21)c1cc(S(=O)(=O)N2CCOCC2)ccc1F (stereo unspecified),-15,3,-7.2,-1.0%,-14,1.4
CCOC(=O)c1cc(S(=O)(=O)N2CC(C)CC(C)C2)cn1C (stereo unspecified),-6,-3,0.7,-0.5%,1,1.5
Cc1cc(C)nc(SCC(N)=O)n1,9,0,6.7,2.0%,6,0.5

# Sorted by value in D2 ag (ascending): six from the list above
Compound,TRPML1 blocker,D2 PAM,D2 ag,Six1-Eya2 blk
CCOC(=O)CSc1nc(Cc2ccccc2)nc2ccccc12,55,-5,-3.7,16
CCCC(=O)NCCc1ccc(F)cc1,-1,-4,-3.0,17
COc1cc(Br)c(Br)cc1N,14,-10,-0.6,8
CCOc1ccccc1NC(=O)c1ccc(-n2cncn2)nc1,-7,-13,-0.5,13
CC1(C)CC2CC(C)(CN2S(=O)(=O)c2ccc(C(=O)Nc3ccc(Cl)c(S(=O)(=O)N4CCOCC4)c3)cc2)C1 (stereo unspecified),-10,-1,2.9,-13
Cc1cc(C)nc(SCC(N)=O)n1,9,0,6.7,6
